# NS1 function inh = influenza NS1 inhibition | S. cerevisiae slowed by influenza A NS1, growth recovery by OD600 | Potency, µM (titrated, usually from 46.1 µM), inactives show top-dose activity, positive = more growth | hit rate 0.4% among 270,000; note: actives are rising curves; nearly all actives have a fitted effect of over 50% in size
#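 Recovery from NS1-induced slow growth read by OD600 in budding yeast switched to galactose assay medium (pH 6.0, -URA) at 1:100 dilution. Compound 23 nl per well; the matching strain lacking NS1 serves as control.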
# Cruzain Triton = inhibitors of Trypanosoma cruzi cruzain with detergent; Potency, µM, inactives show max response, negative = inhibition, actives largely listed as inhibitors; purified cruzain, Z-FR-AMC fluorescence, 0.01% Triton; hit rate 0.43% among 200,000; AID 1478; active = well fitted curve in the direction sought with a large enough effect; inconclusive = small, poorly fitted or top-dose-only effect, or another doubt; inactive = no such curve, though single readings can be large; an effect the other way counts as inactive or inconclusive;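 note: plate controls were neutral wells for no effect and buffer without enzyme for full effect; nearly all actives have a fitted effect of over 40% in size; top concentration of the series not given in the record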
# Target sequence (P25779 123-467 limits assumed): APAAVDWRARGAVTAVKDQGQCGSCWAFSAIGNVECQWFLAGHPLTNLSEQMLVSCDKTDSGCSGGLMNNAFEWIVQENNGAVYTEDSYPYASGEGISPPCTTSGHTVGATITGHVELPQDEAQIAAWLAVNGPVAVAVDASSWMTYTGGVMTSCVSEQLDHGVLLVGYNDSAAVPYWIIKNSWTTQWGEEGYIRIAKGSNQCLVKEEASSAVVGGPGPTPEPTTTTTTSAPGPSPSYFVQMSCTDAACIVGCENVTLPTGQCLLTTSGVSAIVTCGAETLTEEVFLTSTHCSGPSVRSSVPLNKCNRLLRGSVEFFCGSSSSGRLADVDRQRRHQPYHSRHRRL
#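 Enzyme 1.5 nM, Z-FR-AMC 2 uM, NaOAc 100 mM pH 5.5, DTT 5 mM, Triton X-100 0.01%; 15 min RT compound preincubation; kinetic ex360/em450, 60 s delta.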
# MARV entry inh = Marburg virus entry inhibition. Potency, µM (doses to about 37.8 µM), for the others: at the top dose activity change, negative = inhibition, hits mostly inhibitors. hit rate 1.8% among 300,000. Marburg virus pseudotyped entry inhibition, cell reporter; control for the full effect not named in the record; about a third of the inactives were read at about 46 µM; active = well fitted inhibition curve with a large enough effect; inconclusive = small, poorly fitted or top-dose-only effect, or effect the other way; inactive = flat fitted curve, though single readings scatter; tested in HEK293 cells; about a fifth of its hits are not listed in these tables; note: % is set by controls: 0 for no effect and ±100 for the full control effect; luciferase read-out
# StopGo reporter = lowers the luciferase signal of an FMDV 2A StopGo reporter | human cells with a luciferase reporter of 2A StopGo recoding; control for the full effect not named in the record | Potency, µM (doses to about 57.9 µM), without a hit: at the top dose signal change, negative = less light | hit rate 1.2% among 410,000; active = well fitted falling curve with a large enough effect; inconclusive = small, poorly fitted or top-dose-only effect; inactive = no such curve, though single readings can be large or run the other way; tested in HEK293T cells; note: % is set by controls: 0 for no effect and ±100 for the full control effect; nearly all actives have a fitted effect of over 45% in size; luciferase light after 4 h
# RE007 growth inh = less growth of the S. pombe RE007 Vpr strain | S. pombe RE007 Vpr strain, BacTiter-Glo ATP luminescence, 24 h; control for the full effect not named in the record | Potency, µM (titrated, usually from 92.2 µM), for inactives: at the top dose activity change, negative = less growth | hit rate 0.21% among 360,000 | AID 651644; active = well fitted falling curve with a large enough effect; inconclusive = small, poorly fitted or top-dose-only effect; inactive = no such curve, though single readings can be large or run the other way;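 note: % is set by controls: 0 for no effect and ±100 for the full control effect; nearly all actives have a fitted effect of over 50% in size; the assay follows cell death caused by Vpr and the record does not say whether a fall means rescue or toxicity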
#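 Fission yeast RE007 carrying one integrated HIV-1 vpr copy, seeded at OD 0.01 in PMG+AL medium with 23 nL pinned compound. Grown 24 h at 30 degrees; viability read by BacTiter-Glo luminescence after 5 min.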
# SARS PLpro yeast = SARS-CoV PLP inhibition in yeast | S. cerevisiae expressing SARS-CoV PLpro, growth rescue; control for the full effect not named in the record | Potency, µM (titrated, usually from 32.9 µM), for inactives: top-dose activity, positive = growth rescue | hit rate 0.19% among 330,000 | AID 485353; note: 0% is about no effect; nearly all actives have a fitted effect of over 55% in size; growth read by luminescence after 48 h
# LASV entry inh = blocks Lassa virus binding to or entry into cells. Lassa virus pseudotype entry inhibition, cell reporter; control for the full effect not named in the record. Potency, µM (series often up to 37.9 µM), for the others: top-dose activity change, negative = inhibition, usual class: inhibitors. hit rate 1.2% among 300,000. AID 540256; active means well fitted inhibition curve with a large enough effect; inconclusive means small, poorly fitted or top-dose-only effect, or effect the other way; inactive means flat fitted curve, though single readings scatter; tested in HEK293 cells; note: % is set by controls: 0 for no effect and ±100 for the full control effect; nearly all actives have a fitted effect of over 50% in size; luciferase read-out
# Cruzain noTriton = inhibitors of Trypanosoma cruzi cruzain without detergent; P25779; purified cruzain, Z-FR-AMC fluorescence, no detergent; Potency, µM, for inactives: max response, negative = inhibition, usual class: inhibitors; hit rate 2.3% among 200,000; active = well fitted curve in the direction sought with a large enough effect; inconclusive = small, poorly fitted or top-dose-only effect, or another doubt; inactive = no such curve, though single readings can be large; an effect the other way counts as inactive or inconclusive;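 note: plate controls were enzyme without inhibitor for no effect and buffer without enzyme for full effect; nearly all actives have a fitted effect of over 40% in size; top concentration of the series not given in the record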
#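 Detergent-free condition (0.00005% Triton X-100) in acetate buffer pH 5.5 with DTT. 1.5 nM enzyme and compound were pre-mixed 15 min, then 2 uM Z-FR-AMC substrate added; reaction progress from fluorescence change between first and third reads (60 s).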
# * marks the source's active call; other numbers are inactive results; ? = inconclusive; . = no result given; & = joins results of further samples; [ ] = dose if it differs, or a comment. Unless noted, calls come from the whole dose curve; as a rule, active means well fitted rising curve with a large enough effect; inconclusive means small, poorly fitted or top-dose-only effect; inactive means no such curve, though single readings can be large or run the other way. Potency is the fitted concentration of half-maximal effect.
No. | SMILES | NS1 function inh | Cruzain Triton | MARV entry inh | StopGo reporter | RE007 growth inh | SARS PLpro yeast | LASV entry inh | Cruzain noTriton
1 | CCOC(=O)C1(Cc2cccc(Cl)c2)CCCN(C(=O)c2cc(C(C)C)nn2C)C1 (stereo not given) | -39% | . | ? | 0% | 3% | -3% | -8% | .
2 | O=C(NC1CC1)C1CCN(C2CCN(C(=O)CCOc3ccccc3)CC2)CC1 | 7% | . | . | -24% | 1% | 0% | . | .
3 | COc1ccccc1C(c1nnnn1CCc1ccccc1)N1CCN(c2ccccc2)CC1 (stereo not given) | -11% | -0.1% | ? | -5% | 19% | 5% | ? | -4%
4 | O=C(Cn1c(NCCCO)nc2ccccc21)c1cccc(Br)c1 | 0% | -1.1% | 2% | -12% | 7% | 1% | -8% | 4%
5 | CCCCN(C(=O)CCC(=O)Nc1cc(C)on1)C(C(=O)NC(C)(C)CC)c1cccc(OC)c1OC (stereo not given) | -2% | . | . | -11% | -12% | -1% | . | .
6 | CCOc1ccc(NC(=S)N2CCC(NC(=O)C3CCCCC3)CC2)cc1 | -1% | . | 6%[46.1 µM] | 0% | -10% | 0% | 10% | .
7 | CC(C)N1CCC2(CC1)N=C(c1ccc3c(c1)OCO3)CC(c1cc(Cl)ccc1O)N2 (stereo not given) | -33% | -11% | -28% | ? | ? | -30% | ? | -26%
8 | O=C(NC1CCN(Cc2ccccc2)CC1)C1CCN(S(=O)(=O)c2cccc3cccnc23)CC1 | -1% | 0.8% | . | ? | 3% | 0% | . | -2%
9 | Cc1nc(NC(C)C)c2cnn(CCc3ccccc3)c2n1 | -10% | -0.3% | -6% | 26% | -17% | -4% | -6% | -2%
10 | CCSc1nnc(Cc2cc(=O)[nH]c(=O)[nH]2)n1-c1cccc(C)c1 | 5% | . | . | 0% | -12% | -1% | . | .
11 | O=C(NCCCNC(=O)c1ccccn1)c1ccccn1 | -5% | 6.1% | 12%[46.1 µM] | -12% | 13% | -1% | -5% | -3%
12 | Cc1cc(F)ccc1NC(=O)c1cc(S(=O)(=O)N2CCCC2)cn1C | 25% | . | . | -23% | -14% | 0% | . | .
13 | CCNC(C(=O)c1c[nH]c2c(CC)cccc12)c1ccccc1 (stereo not given) | -6% | . | ? | -17% | 0% | 0% | -23% | .
14 | COc1cc(NC(=O)c2ccc(CNc3c(N4CCOCC4)c(=O)c3=O)cc2)cc(OC)c1 | 12% | -1.6% | 9% | -23% | -2% | 0% | . | 3%
15 | O=C(CSc1nc(C(F)(F)F)cc(=O)[nH]1)N1CCCCCC1 | . | . | 8% | -5% | 2% | 0% | -2%[46.1 µM] | .
16 | CC(C)c1ccc(NC(=O)[C@H]2CSCN2C(=O)[C@@H]2CCC(=O)N2)cc1 | 14% | . | 5%[46.1 µM] | 2% | -14% | 4% | 19%[46.1 µM] | .
17 | O=C(c1cccnc1)n1nc(-c2ccco2)nc1NCc1cccs1 | 8% | . | . | 33% | -2% | 0% | . | .
18 | O=C(COc1ccc2c(c1)OCO2)Nc1nccs1 | -8% | . | ? | -28% | 1% | -3% | ? | .
19 | CC(C)c1ccc(CNc2ccc(N3CCOCC3)cc2)cc1 | 2% | -0.2% | 2% | -11% | ? | -1% | ? | 20%
20 | COc1ccc(N2CCN(c3oc(-c4ccccc4C)nc3S(=O)(=O)c3ccccc3)CC2)cc1 | . | -4.3% | -13%[46.1 µM] | -17% | . | . | ? | 13µM*
21 | Cn1ncc(N=Cc2ccccc2)c1C(=O)Nc1cccc(Cl)c1 | -5% | 4.2% | -12% | -19% | -6% | 0% | ? | ?
22 | Cc1ccc(NC(=O)CSC2=Nc3ccccc3C3CC=NN23)c(C)c1 (stereo not given) | -3% | 3.6% | 5% | ? | 11% | 4% | -5% | ?
23 | CC(=O)C1=C(C)NC(=O)NC1c1ccc(OC2CCCC2)cc1 (stereo not given) | 2% | 3.3% | 8% | -10% | 18% | 26% | -2% | -30%
24 | COC(=O)Cc1ccc(O)c(N)c1 | 5% | . | -2%[46.1 µM] | -1% | -17% | 1% | 4% | .
25 | COc1ccc2[nH]c3c(=O)n(CCCCC(=O)N4CCCC4)c(=S)[nH]c3c2c1 | ? | -1.1% | -25% | ? | -6% | 1% | 6% | -5%
26 | CC(C)(C)C1CCC(=NNC(=O)CN(c2ccccc2)S(C)(=O)=O)CC1 (stereo not given) | 8% | -1.4% | 5% | -16% | 6% | 15% | 11% | 14%
27 | COc1ccc(-c2nc(C(N)=O)c3[nH]c(=O)n(-c4cccc(Cl)c4)c3n2)cc1OC | -3% | 2.8% | ? | ? | -10% | 0% | ? | ?
28 | O=C(O)c1ccc(Nc2ccc(F)c(F)c2)c([N+](=O)[O-])c1 | -71% | . | ? | -6% | -11% | 0% | ? | .
29 | COc1cc(CNc2ccc3[nH]c(=O)[nH]c3c2)cc(Cl)c1OCc1ccccc1F | . | -9.8% | ? | ? | . | . | -6%[46.1 µM] | -28%
30 | CCCC(=O)Nc1cc(-c2nn(C)c(=O)c3ccccc23)ccc1N1CCOCC1 | 10% | -0.8% | -17% | 30% | -1% | 0% | ? | -1%
31 | COc1ccc(-n2c3c(c(=O)[nH]c2=O)C(NC(C)=O)(C(F)(F)F)C(=O)N3)cc1 (stereo not given) | . | 1.4% | ? | 1%&-6% | 2% | -6% | -2% | -4%
32 | Cc1cc(C)cc(-n2ncc3c2CCCC3NC(=O)C2CCC2)c1 (stereo not given) | -16% | . | . | -13% | 8% | -5% | . | .
33 | Cc1ccc(-c2csc(N(CCc3ccccc3)C(=O)COc3ccccc3)n2)cc1 | 20% | 3.5% | ? | -13% | 7% | 5% | ? | -20%
34 | O=C(Cn1c(=O)nc(-c2ccccc2)c2ccccc21)Nc1cccc(C(F)(F)F)c1 | . | 1.0% | . | 0% | . | . | 26%[46.1 µM] | -9%
35 | CC1CCCN(c2nc(NCc3ccco3)nc(N)c2[N+](=O)[O-])C1 (stereo not given) | -13% | -12% | ? | 0% | -7% | -20% | ? | -16%
36 | CCOC(=O)Cc1csc(NC(=O)c2ccc(C)o2)n1 | 0% | -4.9% | 6% | 31%[activator] | -3% | 1% | 3% | -4%
37 | Cn1cccc1C(=O)C(=O)Nc1cccc(Cl)c1Cl | -11% | -2.6% | 2% | 31%[activator] | -24% | -2% | ? | ?
38 | CCC(C)NC(=O)C1CCN(c2nc(C)cc(C)n2)CC1 (stereo not given) | 2% | 5.2% | 0% | -16% | 1% | 7% | 2% | -7%
39 | COc1ccccc1CO/N=C/NC(=O)c1c(OC)ccnc1Oc1ccc(F)cc1 | 4% | -1.6% | -24% | . | 0% | -20% | 3% | ?
40 | COc1ccc(C(=O)N2N=C(c3cccc(OC)c3)CC2(O)C(F)(F)F)cc1 (stereo not given) | -25% | -6.4% | ? | ? | -11% | -22% | ? | 9%
41 | CC(SC1=NCCS1)C(=O)Nc1nnc(-c2ccc(F)cc2)s1 (stereo not given) | 5% | -4.0% | . | -8% | 1% | -5% | . | -2%
42 | CCOC(=O)CN1C(=O)C(=O)N(Cc2ccccc2)C1=O | -2% | . | . | -9% | 1% | 0% | . | .
43 | Cc1ccc(NC(=O)Nc2nnc(N3CCCC3)s2)cc1 | . | -5.1% | -19%[46.1 µM] | 14% | . | . | -29%[46.1 µM] | 23%
44 | Cc1cc(C)n2nc(SCC(=O)N(C)c3ccccc3)nc2n1 | -1% | 5.4% | 2% | . | 11% | 11% | 16% | -4%
45 | Clc1cc(-c2ccccc2)nc(-c2ccccc2)n1 | . | . | 14% | -10% | -3% | . | ? | .
46 | COc1cccc(-c2nc(CSCC(=O)N3CCc4ccccc43)c(C)o2)c1 | -17% | -0.4% | 8% | 16% | 7% | 3% | -5% | 17%
47 | Cc1ccc(-n2nc3c(c2NC(=O)c2ccco2)CS(=O)C3)cc1 (stereo not given) | ? | . | 22% | -21% | -7% | 0% | 10% | .
48 | Cc1ccc(NC(=O)COC(=O)COc2ccc(Cl)cc2C)c([N+](=O)[O-])c1 | 4% | -8.8% | ? | -6% | . | 12% | -9% | -5%
49 | O=c1cccc2n1CC1CC2CN(S(=O)(=O)c2cc(Cl)ccc2Cl)C1 (stereo not given) | -3% | . | -3% | -4% | 7% | -5% | 0% | .
50 | CCOc1ccc(CCNC(=O)CCSCc2ccc(Cl)cc2)cc1OCC | . | 0.8% | . | -14% | . | . | 7%[46.1 µM] | -6%
51 | O=C(CN1CCN(Cc2ccccc2)CC1)N1CCCc2c1c(=O)oc1ccc(O)cc21 | -5% | -1.6% | ? | ? | -4% | -1% | ? | -2%
52 | CC1=C(C(=O)OC(C)C)C(c2cccs2)N2C(=O)C(C)SC2=N1 (stereo not given) | 25% | 4.5% | ? | 0% | -23% | 1% | -24% | 2%
53 | Cc1ccc(Cn2nc(C)c3cc(C(=O)OCC(N)=O)sc32)cc1 | 0% | -1.0% | -3% | -20% | -5% | 7% | -6% | -6%
54 | O=C(NCCN1CCOCC1)c1cc(-c2ccc(Br)cc2)on1 | -3% | -3.2% | 0% | 12% | 12% | -1% | -16%[14.3 µM] | -2%

# Profiles, quoted from the list.
# Listed for CC(SC1=NCCS1)C(=O)Nc1nnc(-c2ccc(F)cc2)s1 (stereo not given) : NS1 function inh: 5%; Cruzain Triton: -4.0%; MARV entry inh: .; StopGo reporter: -8%; RE007 growth inh: 1%; SARS PLpro yeast: -5%; LASV entry inh: .; Cruzain noTriton: -2%
# Listed for CC(=O)C1=C(C)NC(=O)NC1c1ccc(OC2CCCC2)cc1 (stereo not given) : NS1 function inh: 2%; Cruzain Triton: 3.3%; MARV entry inh: 8%; StopGo reporter: -10%; RE007 growth inh: 18%; SARS PLpro yeast: 26%; LASV entry inh: -2%; Cruzain noTriton: -30%
# Listed for CC1=C(C(=O)OC(C)C)C(c2cccs2)N2C(=O)C(C)SC2=N1 (stereo not given) : NS1 function inh: 25%; Cruzain Triton: 4.5%; MARV entry inh: ?; StopGo reporter: 0%; RE007 growth inh: -23%; SARS PLpro yeast: 1%; LASV entry inh: -24%; Cruzain noTriton: 2%

# Assay outcomes (PubChem BioAssay)
